High-throughput results from PubChem.
A1 inh: inhibitors of the anti-apoptotic protein A1, read as caspase activation | caspase activation, % (test concentration not listed) | MEF A1-2A-BIM cells, Caspase-Glo 3/7 luminescence, 3 h; percent of clofoctol response, vehicle zero | 330,000 compounds, 0.066% hits;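 active means over half of replicate activation scores above 10%, or exactly half above 10 with the replicate mean above 10; inconclusive means replicate mean below 10 yet half the replicates above 10; inactive means over half of replicates below 10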;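 further: wells of about 30 µL received 50 nL stock; many hits fall short of the cut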
T cruzi repl: blocks replication of Trypanosoma cruzi; T. cruzi beta-gal in NIH3T3, luminescence, 90 h; inhibition, % (test concentration not listed); 300,000 compounds, 1.4% hits; AID 1885;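 active means mean inhibition across valid replicates above about 55%, limit read from the data; inconclusive means mean below that limit but half or more replicates reach it; inactive means mean below it, under half of replicates reach it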;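 further: signal also drops with host cell toxicity which is not excluded here; 0% = plate median of DMSO wells and 100% = zero luminescence signal; higher percent means less beta-gal luminescence so fewer parasites; stock transfer was 50 nL into about 50 µL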
Beta apoptosis: blocks beta cell apoptosis; protection from apoptosis, % (no concentration beside the values); INS-1E cytokine-induced death, ATP luminescence, 48 h; percent of positive-control rescue, neutral wells zero; 300,000 compounds, 0.8% hits;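 active means all replicates at 75% or more, or half of them and the mean; inconclusive means half reach 75% but not the mean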;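 further: 0% = cytokine-treated negative control wells and 100% = positive control rescue; higher means more ATP so stronger rescue from cytokine killing; wells of about 40 µL received 100 nL stock; the first replicate is given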
FGF22 binding: shifts melting point of recombinant human FGF22 | Q9HCT0 | recombinant FGF22 thermal shift, SYPRO orange fluorescence; percent of sucrose octasulfate shift, DMSO zero | calls only at 9.99 µM | 340,000 compounds, 1.5% hits;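 active means melting point raised past a set limit in the mean and every replicate; inconclusive means no clear call; three in four hits are not shown here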
E coli growth: inhibitors of Escherichia coli growth; OD600 absorbance (concentration not given with the values); AID 1053175; OD600, 23 h; stronger effect = lower value; 330,000 compounds, 0.21% hits;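 active means OD600 absorbance below the run mean of sample wells minus 3.6 SD, in any replicate, cut at about 0.56 in these data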;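 further: stock transfer was 300 nL into about 60 µL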
Ecoli rRNA inh: inhibits bacterial ribosomal RNA function over humanized ribosomes; E. coli WT GFP vs humanized-ribosome RFP mutants, fluorescence, 24 h; stronger effect = lower value; DMSO median 0, no signal -100; GFP signal change (wild-type ribosome), % (concentration not given with the values); 350,000 compounds, 1.6% hits; AID 720706;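 active means significant combined selectivity score with lowered wild-type GFP, culture density cut under 30%, mutant RFP and density less affected; inactive means any of these conditions unmet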; further: one replicate is shown; some compounds called inactive have numbers as strong as hits
UCH37 inh: blocks the human deubiquitinase UCH37 | inhibition, % (concentration not given with the values) | Q9Y5K5 | purified proteasome/UCH37, Ub-AMC cleavage fluorescence | 330,000 compounds, 0.33% hits;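 active means mean of two replicates above 20%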;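 further: 0% = compound-free wells with enzyme and 100% = wells lacking proteasome; stock transfer was 100 nL into about 20 µL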
Target sequence (Q9Y5K5 whole entry, looked up): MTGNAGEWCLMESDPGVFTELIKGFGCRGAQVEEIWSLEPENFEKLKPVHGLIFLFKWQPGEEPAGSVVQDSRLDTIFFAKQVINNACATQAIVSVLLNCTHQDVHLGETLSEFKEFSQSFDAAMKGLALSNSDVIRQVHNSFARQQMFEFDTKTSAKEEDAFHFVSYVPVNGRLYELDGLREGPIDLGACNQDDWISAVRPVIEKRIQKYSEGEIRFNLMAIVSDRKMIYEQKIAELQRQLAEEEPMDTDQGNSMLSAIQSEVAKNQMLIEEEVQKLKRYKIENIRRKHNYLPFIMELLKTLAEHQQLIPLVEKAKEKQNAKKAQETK
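Material: human UCH37 enzyme supplied as purified proteasome complex / Amount: 0.15 nM proteasome as dispensed / Buffer or medium: pH 7.4 Tris-HCl (50 mM) with ovalbumin, ATP-MgCl2, DTT / Times: preincubation 30 min, reaction 25 min, room temperature / Technique: AMC fluorescence from Ub-AMC cleavage, excitation 355 nm, emission 460 nm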
MLL AF4-AF9 inh: MLL-AF4/AF9 protein interaction inhibition; P42568; AlphaScreen, biotin-AF4 peptide binding to FLAG-AF9; inhibition, % at 10 µM; 350,000 compounds, 0.47% hits; AID 651704;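 active means every replicate reaching a set inhibition limit, whatever the replicate mean, cut at about 25% in these data; inconclusive means mean inhibition reaches that limit but some replicates miss it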;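 further: 0% = plate neutral control median and 100% = total signal loss; the record names both 10 and 1 µM as test concentration; the first replicate is given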
Target sequence (P42568 whole entry, looked up): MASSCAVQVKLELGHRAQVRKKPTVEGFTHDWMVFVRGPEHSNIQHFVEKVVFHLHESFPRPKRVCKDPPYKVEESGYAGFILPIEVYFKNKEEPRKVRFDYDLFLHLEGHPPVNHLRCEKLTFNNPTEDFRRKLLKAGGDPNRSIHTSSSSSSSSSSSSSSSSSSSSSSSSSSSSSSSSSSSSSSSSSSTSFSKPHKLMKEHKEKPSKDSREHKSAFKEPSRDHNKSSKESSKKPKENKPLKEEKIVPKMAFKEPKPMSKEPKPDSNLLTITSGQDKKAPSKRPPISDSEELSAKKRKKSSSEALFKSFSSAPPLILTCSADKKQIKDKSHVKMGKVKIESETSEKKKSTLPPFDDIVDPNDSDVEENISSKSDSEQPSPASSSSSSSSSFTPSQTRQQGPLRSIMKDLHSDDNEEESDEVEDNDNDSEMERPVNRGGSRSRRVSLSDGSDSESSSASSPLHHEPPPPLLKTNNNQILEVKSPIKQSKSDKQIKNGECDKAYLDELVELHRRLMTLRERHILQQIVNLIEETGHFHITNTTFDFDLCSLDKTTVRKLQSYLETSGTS
Ecoli rRNA inh OD600: second read-out of Ecoli rRNA inh, no call of its own (marks repeat the call); OD600 change, %; measured here: OD600 growth;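 optical density of the mix in the first replicate; 0 = DMSO median and -100 = no signal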
Ecoli rRNA inh RFP: recorded beside Ecoli rRNA inh, whose call it bears; RFP signal change, %; measured here: RFP humanized mutant strains;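 first replicate; 0 = DMSO median and -100 = no signal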
Active calls of the source: *; i = inactive; ? = inconclusive; . = no result given. This is a subset, so the mix of outcomes need not match the whole.

No.	Compound	A1 inh	T cruzi repl	Beta apoptosis	FGF22 binding	E coli growth	Ecoli rRNA inh	Ecoli rRNA inh OD600	Ecoli rRNA inh RFP	UCH37 inh	MLL AF4-AF9 inh
1	Clc1ccc(-c2cnc(Oc3ccccc3)nc2)cc1	-0.2	4	-4	.	0.71	.	.	.	-0.1	.
2	CCOC(=O)N/N=C/c1ccc(Oc2ccccc2)cc1	.	6	.	i	.	-26	-24	-1.2	.	3.4
3	COc1ccc(N=Cc2cc(Cc3ccccc3Cl)cc([N+](=O)[O-])c2O)cc1OC	0.6	26	-1	.	0.67	.	.	.	8.2	.
4	CCCCCC(=O)Nc1cc(S(=O)(=O)N2CCOCC2)ccc1N1CCN(C)CC1	-0.4	64*	0	i	0.72	16	13	1.4	-1.8	-1.4
5	COc1ccc(CN2CCc3ccccc3C2)cc1Br	-0.4	24	-2	i	0.65	-11	-6	1.6	3.7	0.6
6	O=C(NNC1=C(C(=O)C(F)(F)F)CCC1)c1cccc(Cl)c1	-0.6	6	18	.	0.71	.	.	.	-0.3	.
7	COCCOC(=O)C1=C(C)NC2(O)c3ccccc3C(=O)C12O (centres undefined)	0.7	10	3	.	0.69	.	.	.	14	.
8	Cc1c(NC(=S)N/N=C/C=C/c2ccccc2)c(=O)n(-c2ccccc2)n1C	0.1	-7	-2	i	.	-3	-4	-1.4	.	1.4
9	COc1ccc2c(=O)c(-c3cnn(-c4ccccc4)c3)c(C)oc2c1	0.0	-7	5	i	0.67	14	8	-0.4	-1.8	-7.5
10	O=C(COC(=O)C1CC1)NC(=O)NCc1ccccc1	0.8	-9	-2	i	0.65	4	5	-0.5	0.3	0.9
11	Cc1ccc(-c2cc(=O)c3cc(Cl)ccc3[nH]2)cc1	-6.2	-20	-3	.	0.81	.	.	.	0.8	.
12	O=C(Nc1nc(-c2ccc3ccccc3c2)cs1)c1ccc(N2C(=O)CCC2=O)cc1	0.0	-32	.	i	0.77	8	7	-1.4	-3.3	-5.9
13	Cn1ccnc1SCC(=O)NC1CCCCC1	0.1	-18	-4	.	0.75	.	.	.	-0.8	.
14	COCCCNC(=O)C(=O)Nc1ccc2c(c1)N(S(=O)(=O)c1cccs1)CCC2	1.3	14	15	i	0.7	6	-7	1.1	1.3	-16
15	COc1ccccc1CC(=O)Nc1cccc(C(=O)NN2C(=O)c3ccccc3C2=O)c1	-0.4	-13	0	i	0.66	8	8	-1.3	0.5	-41
16	Cc1onc(-c2c(Cl)cccc2Cl)c1C(=O)NCCc1ccc(S(N)(=O)=O)cc1	0.0	-5	4	.	0.72	0	1	-1.9	-1.2	.
17	N#Cc1c(C(F)(F)F)cc(Cc2ccccc2)nc1SCC(=O)NCC(=O)O	1.2	-9	0	i	0.71	8	8	3.1	4.5	2.6
18	C#Cc1ccc([C@H]2C=C(C(=O)N3CCN(Cc4ccccc4)CC3)O[C@@H](OCc3ccc(CO)cc3)C2)cc1	0.7	48	6	i	.	7	9	2.4	0.1	0.1
19	O=C(CCCN1C(=O)/C(=C\c2cccs2)SC1=S)NNC(=O)c1cccnc1	-0.1	7	-7	.	0.59	11	11	12	7.2	-1.7
20	O=C(Nc1cc(-c2ccccc2)nn1-c1c(Cl)cccc1Cl)c1ccc(F)cc1	-0.8	.	-6	i	0.67	-13	-11	-0.2	-0.1	5.9
21	CCCCC(Sc1nc(N)c(NC(=O)c2ccco2)c(=O)[nH]1)C(=O)O (centres undefined)	1.2	-6	-9	i	0.7	14	10	0.7	6.2	1.6
22	CC(C)CNC(=O)NC(=O)COC(=O)c1ccccc1Sc1ccc(C(F)(F)F)cc1[N+](=O)[O-]	0.7	4	-5	.	0.7	.	.	.	3.6	.
23	O=C(c1ccccc1)c1ccc(OC(=O)N2CCOCC2)cc1	-0.2	25	-5	.	0.67	.	.	.	1.0	.
24	CCOc1ccc(/C=C2\SC(N3CCCCC3)=NC2=O)cc1	0.3	7	-8	i	0.69	-5	-2	0.3	3.6	1.5
25	Cc1ccc(S(=O)(=O)N2CCCC2C(=O)Nn2cnnc2)cc1 (centres undefined)	0.7	-14	-6	.	0.67	.	.	.	0.3	.
26	Cc1cc(C)n(CCNC(=O)CCc2nnc(CCc3ccccc3)o2)n1	-0.3	-2	0	i	0.65	17	21	1.3	-0.2	-0.8
27	CC(=O)N1CCN(C(=O)COC(=O)c2oc3ccccc3c2C)CC1	0.3	.	-2	i	0.65	5	3	1.0	-2.2	0.0
28	Cc1cc(NC(=O)CCC(=O)N(Cc2ccccc2)C2(C(=O)NC3CCCCC3)CCCC2)no1	-0.1	22	-6	.	0.7	-37	-57	-7.1	0.1	1.0
29	N#CCCn1cc(C(=O)Nc2ccc(C(=O)O)cc2)c(-c2cccc(Br)c2)n1	0.2	-13	-4	i	0.66	-26	-25	-2.8	1.9	-2.0
30	COc1ccccc1CCNC(=O)C(=O)Nc1cc2c3c(c1)CC(=O)N3CCC2	-0.8	-2	2	i	0.64	-14	-19	1.5	1.9	-6.2
31	CCC(=C(c1ccc(OC)cc1)c1ccc(OC)cc1)c1cn(CC(O)CN(CCO)CCO)c2ccccc12 (centres undefined)	?	.	-6	i	0.6	0	-4	23	2.8	17
32	CCN(CC)S(=O)(=O)c1cc(C(=O)Nc2cc(C)[nH]n2)ccc1Cl	-0.5	8	-7	.	0.69	.	.	.	5.1	.
33	Cc1ccc(C)c(CSC2=NCCN2C(=O)c2cccs2)c1	-0.1	18	-5	i	0.71	7	13	-1.3	6.0	-8.9
34	CCCNC(=S)Nc1ccc(Oc2ccccc2)cc1	-1.2	17	4	.	0.67	.	.	.	4.5	.
35	Cc1cccc(NC(=O)CSc2nnc(-c3ccco3)o2)c1C	0.0	-4	4	.	0.69	.	.	.	5.3	.
36	Cc1[nH]c2ccccc2c1Cc1nnc(SCc2ccccc2)o1	1.4	3	-1	i	0.74	-10	-20	0.9	6.7	2.7
37	O=C(CSc1ncnc2nc[nH]c12)Nc1ccc(Br)cc1Cl	-0.8	9	-11	i	0.67	-13	-11	-0.7	-2.0	9.6
38	COc1ccc(CCNc2nc(C)cc(C)n2)cc1OC	-0.3	-8	-3	i	0.69	2	-4	-0.9	3.1	-3.9
39	N#Cc1c(NC(=O)CN2C(=O)c3ccccc3C2=O)oc(-c2ccccc2)c1-c1ccccc1	0.4	3	4	.	0.69	.	.	.	2.5	.
40	Cc1ccc(S(=O)(=O)Nc2ccc3c(c2)nc2n3CCN(Cc3ccccc3)C2)cc1	0.7	?	-2	.	0.67	.	.	.	-6.2	.
41	CCC(C)NC(=O)c1oc2ccc(S(=O)(=O)N3CCC4(CC3)OCCO4)cc2c1C (centres undefined)	-0.5	-5	6	i	0.7	1	-18	1.0	-1.5	0.8
42	COc1ccccc1CNC(=O)C1CCN(S(=O)(=O)c2cccc([N+](=O)[O-])c2)CC1	0.0	17	5	i	0.71	-5	11	-2.6	-3.4	3.5
43	CN1CCN(C(=O)/C=C\c2ccc(Cl)cc2)CC1	0.5	9	-1	.	0.68	.	.	.	4.7	.
44	Cc1cnc(CNC(=O)C2CCC(=O)N(Cc3ccc(Cl)cc3)C2)[nH]1 (centres undefined)	0.1	2	-7	i	0.7	8	12	-1.2	0.8	0.9
45	COc1ccccc1OCCCN1C(=O)C(=O)c2cccc(C)c21	-0.4	12	-1	i	0.69	-1	1	9.8	2.1	-5.2
46	COc1ccc(CCNC(=O)C(=O)NCC2OCCN2S(=O)(=O)c2ccc(Cl)cc2)cc1 (centres undefined)	-1.7	-12	-2	i	0.83	7	8	-6.9	2.6	6.4
47	CCCCNC(=O)c1ccc2c(c1)ncn2C1CCCC1	-0.5	-8	.	.	0.67	.	.	.	-2.8	.
48	COc1ccccc1NC(=O)c1ccc(S(=O)(=O)N(C)C)cc1	-0.3	-15	-2	i	0.69	-1	-3	-2.7	3.9	1.3
49	Cc1ccc(N(NC(=O)C(O)(c2ccccc2)c2ccccc2)C(=O)CCl)cc1	1.2	-9	-9	.	0.64	.	.	.	3.7	.
50	CC(=O)c1cccc(OCC(O)CNCC2COc3ccccc3O2)c1 (centres undefined)	0.3	53	-3	i	0.68	-3	6	3.3	4.4	4.1

More structures.
No.	Compound	A1 inh	T cruzi repl	Beta apoptosis	FGF22 binding	E coli growth	Ecoli rRNA inh	Ecoli rRNA inh OD600	Ecoli rRNA inh RFP	UCH37 inh	MLL AF4-AF9 inh
51	Fc1ccc(CSc2ccc(-c3ccco3)nn2)cc1	-7.1	-11	-2	i	0.69	1	-1	-7.1	-3.6	-26
52	COC(=NC(C)C)NC(C)C	0.7	-4	-3	i	0.67	6	3	-3.0	-0.1	-0.8
53	COc1cc2c(cc1NC(=O)CSc1ccc(C)cc1)oc1ccccc12	0.1	16	0	i	0.72	21	8	11	1.2	-0.7
54	Cc1ccc(C(=O)N2CCC(N3CCC(C(=O)N4CCOCC4)CC3)CC2)cc1C	0.2	2	.	i	0.7	14	11	1.6	-3.9	0.5
55	CCC(CC)COC(=O)C1=C(C)NC(=O)NC1c1ccc(N(C)C)cc1 (centres undefined)	-0.1	5	2	i	0.71	5	-1	12	-2.0	-0.6
56	Cc1ccc(C(=O)Nc2cccc(C(F)(F)F)c2)cc1Nc1cnccn1	-1.4	-5	-12	i	0.75	4	-14	-2.7	1.5	5.8
57	O=C(c1ccco1)N1CCN(C(c2ccc(F)cc2)c2nnnn2Cc2cccs2)CC1 (centres undefined)	0.0	6	4	.	0.74	.	.	.	0.3	.
